Compound activity deposited in PubChem BioAssay by National Center for Advancing Translational Sciences (NCATS).
TRPML1 agonist: agonists of human TRPML1 channel; Q9GZU1; TRPML1-expressing cells, Ca2+ dye fluorescence, FDSS; host cell line not named in the record; reference of the full effect not given here; activation, % (test concentration not listed); 410,000 tested, 0.12% active; AID 624414; in the data active = activation above about 50%; inconclusive = about 30% to 50%; inactive = below about 30%; also: 0% is about no effect; the text of the record puts the active cut at 80%
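Tet-induced TRPML1-DL cells, 1,500 per well, cultured overnight, were loaded with a no-wash Ca2+ dye for 45–90 min. Calcium fluorescence was recorded on the FDSS for 110 s after compound addition, before the EC80 agonist (4 uM 54-4) was added.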
D2 ag: human D2 receptor agonism in beta-arrestin assay; AID 624465; P14416; DiscoveRx PathHunter D2 beta-arrestin, luminescence, 90 min; 100% = 57 uM dopamine signal; 360,000 tested, 0.084% active; activation, % (concentration not given with the values); in the data active = activation above about 40%; inconclusive = about 15% to 40%; inactive = below about 15%; also: compound concentration not given in the record; the text of the record calls up to 30% inactive
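Agonist mode: compounds alone added to overnight-plated D2 PathHunter cells for 90 min at 37 C, with 57 uM final dopamine (EC100) defining full response. Beta-arrestin recruitment detected by chemiluminescent reagent, read after 1 h at ambient temperature.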
D2 potentiator: positive allosteric modulators of human D2 dopamine receptor | DiscoveRx D2 beta-arrestin cells, luminescence, 90 min; 100% = 57 uM dopamine signal | potentiation, % (test concentration not listed) | 360,000 tested, 0.23% active | AID 624464; active = potentiation of 50% or more; inconclusive = 30% to 50%; inactive = 30% or less;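 also: compound concentration not given in the record; tested on top of an EC20 dose of dopamine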
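PathHunter D2 cells, attached overnight at 37 deg C, received compound in DMSO plus dopamine at EC20 (50 nM final) for 90 min at 37 deg C. Beta-arrestin recruitment was read as luminescence after 1 h with detection reagent at ambient temperature.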
PINK1 modulator: changes PINK1 expression; Potency, µM (highest dose often 76.6 µM), for inactives: at the highest dose activation (PINK1 increase), actives largely listed as activators; PINK1 immunofluorescence, high-content cytometry, 24 h; 410,000 tested, 0.2% active; active = well fitted activation curve with a large enough effect; inconclusive = small, poorly fitted or top-dose-only effect; inactive = flat fitted curve, though single readings scatter; cell line not stated here;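 also: potency is read from the fitted curve at half-maximal effect; % of control where 0% means no effect; nearly all actives have a fitted effect of over 65% in size; a mitochondrial uncoupler was the plate control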
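PINK1 protein level read as immunofluorescence by microplate cytometer in a fixed, stained stable cell line after 24 h exposure to five compound concentrations, with CCCP as control.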
TRPML1 blocker: blocks the human TRPML1 channel; TRPML1-inducible cells, Ca2+ dye fluorescence, FDSS; hits give low values; inhibition of EC80 agonist-evoked calcium signal; Q9GZU1; 390,000 tested, 0.02% active; activity change, negative = inhibition, % (no concentration beside the values); in the data active means activity change below about -50%; inconclusive means about -30% to -50%; inactive means above about -30%;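 also: stimulus is agonist 54-4 at its EC80 concentration; % is scaled to controls: 0 for no effect and ±100 for the full control effect; compound concentration not given in the record; the text of the record puts the active cut at -80%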
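Tet-induced TRPML1-DL cells loaded with Ca8 no-wash calcium dye were read kinetically on FDSS. Compound addition was followed by EC80 agonist 54-4 (4 uM final); inhibition was read over 110 s.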
Six1-Eya2 inh: blocks human Six1 binding to Eya2; activity change, % (no concentration beside the values); AID 651725; 360,000 tested, 0.56% active; Q15475+O00167; AlphaScreen GST-Six1/His-Eya2 binding, biochemical; hits give low values; control for the full effect not named in the record; in the data active = activity change below about -65%; inconclusive = about -30% to -65%; inactive = above about -30%; also: % is scaled to controls: 0 for no effect and ±100 for the full control effect; compound concentration not given in the record
Target sequence (O00167 whole entry, looked up): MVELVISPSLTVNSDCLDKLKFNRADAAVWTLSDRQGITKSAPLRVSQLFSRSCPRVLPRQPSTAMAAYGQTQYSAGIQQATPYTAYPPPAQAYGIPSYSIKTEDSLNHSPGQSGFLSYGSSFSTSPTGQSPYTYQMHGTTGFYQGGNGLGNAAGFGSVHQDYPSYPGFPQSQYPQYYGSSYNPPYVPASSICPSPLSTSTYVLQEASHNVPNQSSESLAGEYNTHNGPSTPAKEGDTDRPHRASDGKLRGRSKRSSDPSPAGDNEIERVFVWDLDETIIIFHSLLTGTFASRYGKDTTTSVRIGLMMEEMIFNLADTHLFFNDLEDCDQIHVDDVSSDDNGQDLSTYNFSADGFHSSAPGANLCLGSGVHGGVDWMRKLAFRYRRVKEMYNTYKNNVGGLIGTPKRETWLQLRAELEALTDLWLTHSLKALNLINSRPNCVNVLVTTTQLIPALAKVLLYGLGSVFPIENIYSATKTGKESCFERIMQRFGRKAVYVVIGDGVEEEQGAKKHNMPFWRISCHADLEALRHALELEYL
Target sequence (Q15475 whole entry, looked up): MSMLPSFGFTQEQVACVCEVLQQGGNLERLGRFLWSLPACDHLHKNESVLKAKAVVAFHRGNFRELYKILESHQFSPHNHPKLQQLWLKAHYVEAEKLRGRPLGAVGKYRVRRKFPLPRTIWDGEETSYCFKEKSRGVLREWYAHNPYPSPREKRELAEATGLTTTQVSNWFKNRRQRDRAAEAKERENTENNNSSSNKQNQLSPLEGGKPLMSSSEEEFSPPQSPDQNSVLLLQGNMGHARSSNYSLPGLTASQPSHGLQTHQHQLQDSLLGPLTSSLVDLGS
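Compounds are tested against tagged Six1 and Eya2 proteins bridged by glutathione donor and nickel acceptor beads; after a one-hour incubation at 37 °C without light, AlphaScreen emission is recorded.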
* = called active by the depositor; u = inconclusive; x = not tested or not shown; & = joins results of further samples; [ ] = remark or other dose.

SMILES	TRPML1 agonist	D2 ag	D2 potentiator	PINK1 modulator	TRPML1 blocker	Six1-Eya2 inh
Cc1ccc(OC(=O)c2cc(C)nn2C(C)(C)C)cc1	-1.3	-3.6	-12	9.6%	-5	30
O=C(CSc1nccc2ccccc12)N1CCN(c2ccccn2)CC1	0.3	-1.7	-6	-0.1%	1	-4
COc1cc(OC)c(NC(=O)CCc2ccccc2)cc1Cl	0.8	-3.6	-31	-1.8%	-4	13
O=C(CN1C(=O)COc2ccc(S(=O)(=O)N3CCCCC3)cc21)NCc1ccccc1Cl	0.0&3.4	-6.8	-2	-0.2%&1.9%	77&-7	-28
CCNc1c(NS(=O)(=O)c2ccc(OC)cc2)c(=O)oc2ccccc12	-0.4	4.9	4	-1.4%	13	3
COc1ccc(-n2c(SCCC#N)nnc2-c2cc(Cl)ccc2OC)cc1Cl	1.6	0.0	23	2.8%	33	-5
CN(c1ccccc1)S(=O)(=O)c1nnc(NC(=O)c2cccs2)s1	1.8	x	x	0.7%	-6	x
COC(=O)[C@]1(Cc2ccccc2)N[C@H](CN(C)S(=O)(=O)c2ccc(C(F)(F)F)cc2)[C@@H]2C(=O)N(Cc3ccccc3)C(=O)[C@@H]21	2.8	0.8	-5	1.0%	-5	0
COc1ccc(OC)c2sc(NC(=O)c3ccc(Br)s3)nc12	-0.6	-3.7	-6	5.9%	7	6
COc1cccc(C=C2SC(=S)NC2=O)c1	0.0	-1.8	1	5.6%	8	-16
COc1cc(CN2CCC(CCC(=O)NC3CC3)CC2)cc(Cl)c1OC	0.2	-5.7	-5	-0.7%	-9	2
COc1ccc(N(CC(=O)NCCSCc2ccc(C)cc2)S(=O)(=O)c2ccccc2)cc1	3.2	0.1	-15	2.0%	-2	0
CCOc1ccc(CCNC(=O)CSCc2nc(-c3cccc(C)c3)oc2C)cc1OCC	3.2	x	x	-0.4%	35	x
CCOc1cc(Br)c(Br)c(C=Nc2ccc(NC(C)=O)cc2)c1O	-0.3	-6.5	-30	6.0%	-8	-3
CC(C)(C)n1nnnc1C(c1ccccc1F)N(Cc1ccco1)CC1CCCO1 (configuration not stated)	66*	-0.9	-6	x	3	-5
COc1ccc(S(=O)(=O)N2CCCC2CNC(=O)C(=O)NCc2ccc3c(c2)OCO3)cc1 (configuration not stated)	-0.4	1.2	0	3.6%	-18	1
COc1ccc(-c2noc(-c3cccc(OC)c3OC)n2)cc1	3.8	x	x	0.2%	16	x
COC(=O)c1ccc(CNC(=O)c2c3c(nc4ccccc24)CCN(Cc2ccccc2)C3)cc1	0.1	-0.4	-17	u	-23	-9
CCCn1nnc(NC(=O)/C=C/c2ccc(C(C)C)cc2)n1	1.6	-2.3	-18	3.5%	-8	0
COc1ccc(CCNC(=O)c2cnc(C)cn2)cc1	-0.5	4.4	0	-0.9%	-2	10
CCNC(=O)CC1C(=O)N(c2ccc(F)cc2)C(=O)N1CCC(C)C (configuration not stated)	-0.1	7.3	11	13%[38.3 µM]	38	1
O=C(NC(=S)NCCOCc1ccc(Cl)cc1)c1cccnc1	0.8	-1.6	-13	0.4%	-1	0
[O-]c1n[n+](-c2ccc(Cl)cc2)cc2ccccc12	-1.0	0.7	-20	-1.2%	4	-3
CCOC(=O)c1cccc(NC(=O)N2Cc3ccccc3Oc3ncccc32)c1	0.5	x	x	-1.1%	-6	x
COc1ccccc1OCCCN1C(=O)C(=O)c2cccc(C)c21	10	-11	-30	1.0%	9	-1

Some of the entries so far, bar-delimited.
Compound | TRPML1 agonist | D2 ag | D2 potentiator | PINK1 modulator | TRPML1 blocker | Six1-Eya2 inh
CCCn1nnc(NC(=O)/C=C/c2ccc(C(C)C)cc2)n1 | 1.6 | -2.3 | -18 | 3.5% | -8 | 0
COc1ccc(-n2c(SCCC#N)nnc2-c2cc(Cl)ccc2OC)cc1Cl | 1.6 | 0.0 | 23 | 2.8% | 33 | -5
COc1cc(OC)c(NC(=O)CCc2ccccc2)cc1Cl | 0.8 | -3.6 | -31 | -1.8% | -4 | 13
O=C(CSc1nccc2ccccc12)N1CCN(c2ccccn2)CC1 | 0.3 | -1.7 | -6 | -0.1% | 1 | -4

Additional structures follow:
SMILES	TRPML1 agonist	D2 ag	D2 potentiator	PINK1 modulator	TRPML1 blocker	Six1-Eya2 inh
COc1ccc(CCNCC(O)COc2ccc(OC)cc2C(C)(C)C)cc1 (configuration not stated)	-0.2	-1.4	-16	-1.5%	2	-17
Cc1ccc(-c2cc(C(=O)Nc3ccccn3)c3ccccc3n2)o1	-1.1	0.1	-6	4.8%	-12	-19
O=C(O)CCC(=O)Nc1ccc(C(=O)OCC(=O)c2ccc(Cl)cc2)cc1	-0.5	0.8	6	1.3%	-3	0
COc1ccc(OC)c(NC(=O)c2cccc(Cn3cc(Br)c([N+](=O)[O-])n3)c2)c1	1.9	-5.5	-13	2.9%	20	-21
CC1(C)CC(=O)C2=C(C1)OC(N)=C(C#N)C21CCN(Cc2ccccc2)CC1	2.3	2.4	-22	-0.1%	2	0
CCCCNC(=O)c1ccc2nc(CC)c(N(CC)CCOC)n2c1	-0.1	-3.3	-4	-1.1%	11	0
COc1ccc(CN2C(=O)C(CC(C)C)Nc3ncnc(N4CCCCC4)c32)cc1 (configuration not stated)	-0.3	-4.6	-18	1.6%	-2	2
Cc1ccc(NC2CCCN(C(=O)c3ccccc3-c3ncc[nH]3)C2)cc1C (configuration not stated)	-0.7	-0.7	-12	-0.4%	-1	-4
COc1cccc(OCc2cc(C(=O)N3CCC(C(O)C(C)C)CC3)no2)c1 (configuration not stated)	-0.6	1.5	-10	-0.5%	-13	2
Cc1nc(N2CCOCC2)[nH]c(=O)c1CCC(C)C	-0.8	-2.5	14	-20%[38.3 µM]	-6	5
Cc1ccc2[nH]c(-c3ccccc3)cc(=O)c2c1	0.0	1.1	-21	8.8%	-26	2
C=CCOC(=O)CCP(=O)(CCC(=O)OCC=C)c1ccccc1	-0.6	0.7	-5	0.9%	26	6
CC1O[C@@H](O[C@H](C)CC[C@@H](C)O)C(O)C[C@H]1O (some centres not stated)	-0.6	-2.3	-4	1.1%	-1	12
COc1ccc(C2C(Oc3ccccc3)C(=O)N2c2ccc(C)c(C)c2)cc1OC (configuration not stated)	2.9	-0.6	-15	2.0%	25	-10
O=P(/C(=N/O)Sc1ccccc1)(N1CCOCC1)N1CCOCC1	-0.3	-0.3	8	-0.9%	-7	7
CC(C)NC(=O)c1cc(-c2cccs2)nc2ccccc12	1.2	-2.0	-8	0.3%	-21	-3
Cn1cc(-c2cccc(C(F)(F)F)c2)cc(C#N)c1=O	-0.4	0.8	5	1.6%	20	-4
O=C(NC1CCCCC1)C(c1ccccc1)N(Cc1cccnc1)C(=O)c1csnn1 (configuration not stated)	0.0	5.7	-5	2.4%	-3	4
Cc1nonc1OCCNCCNc1ccc([N+](=O)[O-])cc1Cl	0.5	-1.8	-13	0.3%	3	-3
COc1ccc(NC(=O)CSc2nc3[nH]ncc3c(=O)[nH]2)c(OC)c1	0.0	-8.8	-19	2.9%	-22	1
O=C1c2cc(Br)ccc2OC2C=CC=CC12 (configuration not stated)	-0.2	-0.2	x	0.4%	-9	7
CCNc1nc(NCC)nc(N2CC(=O)N(CC(=O)OCC)C2=N)n1	1.1	-0.6	-3	-1.1%	-8	0
CCc1nc(C)cc2c1sc1ccccc12	-0.3	-0.4	-6	0.0%	5	7
Cc1ccc(NC(=O)CN2CCOCC2)cc1Cl	0.4	-0.8	-4	-0.5%	-13	2
O=C(NCCN1CCOCC1)c1ccc(F)cc1	4.2	-1.1	-14	4.1%[38.3 µM]	-11	4

The last 7 entries of the part before come first, to join the parts:
SMILES	TRPML1 agonist	D2 ag	D2 potentiator	PINK1 modulator	TRPML1 blocker	Six1-Eya2 inh
Cc1nonc1OCCNCCNc1ccc([N+](=O)[O-])cc1Cl	0.5	-1.8	-13	0.3%	3	-3
COc1ccc(NC(=O)CSc2nc3[nH]ncc3c(=O)[nH]2)c(OC)c1	0.0	-8.8	-19	2.9%	-22	1
O=C1c2cc(Br)ccc2OC2C=CC=CC12 (configuration not stated)	-0.2	-0.2	x	0.4%	-9	7
CCNc1nc(NCC)nc(N2CC(=O)N(CC(=O)OCC)C2=N)n1	1.1	-0.6	-3	-1.1%	-8	0
CCc1nc(C)cc2c1sc1ccccc12	-0.3	-0.4	-6	0.0%	5	7
Cc1ccc(NC(=O)CN2CCOCC2)cc1Cl	0.4	-0.8	-4	-0.5%	-13	2
O=C(NCCN1CCOCC1)c1ccc(F)cc1	4.2	-1.1	-14	4.1%[38.3 µM]	-11	4
CCN(CC)CCNC(=O)CS(=O)Cc1nc(-c2ccc(Cl)cc2)oc1C (configuration not stated)	-0.5	-2.8	-5	4.6%[38.3 µM]	0	1
COc1ccc(C(=O)Nc2ccc(C)cn2)c(OC)c1	0.2	1.5	-4	-1.6%	23	-4
O=C(CCN1C(=O)CSc2ccccc21)Nc1cccc(C(F)(F)F)c1	0.5	-2.2	-3	-0.2%	36	2
COc1cccc(CNC(=O)CSC2=Nc3ccccc3N=C(c3ccc(F)cc3)C2)c1	0.7	x	x	2.6%	0	x
C/C(=C\C(=O)c1ccc(C)cc1)Nc1cccc(O)c1	0.9	-1.2	0	2.2%[38.3 µM]	-3	-11
COc1ccc(S(=O)(=O)N2CC(=O)Nc3ccccc32)cc1	0.6	0.0	0	2.2%	10	6
Cc1[nH]n(-c2cccc(Cl)c2)c(=O)c1-c1ccc(Cl)cc1	-0.2	1.9	u	u	-1	-2
COc1cccc(N=Nc2c(=O)[nH]n3c(C)cc(C)nc23)c1	-0.1	0.5	-16	1.5%	-14	-5
COc1ccc(N(C(C)C(=O)N/N=C/c2cc(Br)c(C)o2)S(C)(=O)=O)cc1 (configuration not stated)	0.6	-5.0	-1	1.0%	12	-1
CCOc1ccc(NC(=O)CN(C)Cc2cc(=O)n3c(-c4ccccc4)csc3n2)cc1OCC	-1.8	-3.3	-4	-1.1%	-18	2
Cc1ccc2nc(SCC(=O)Nc3ccc(C#N)cc3)[nH]c2c1	4.5	x	x	1.0%	3	x
Cc1ccnc(NS(=O)(=O)c2ccc(N3C(=O)C4CCCCC4C3=O)cc2)n1 (configuration not stated)	0.7	-0.9	-5	0.9%	-9	2
O=C(CC1C(=O)N(c2ccc(F)cc2)C(=O)N1Cc1ccc2c(c1)OCO2)Nc1ccc(Cl)cc1 (configuration not stated)	-0.3	x	x	3.5%	12	x
COc1ccccc1NC(=O)COc1ccccc1C(=O)c1cnn(-c2ccccc2)c1	-1.0	1.5	5	-1.3%	4	-7
